RecA intein inh = inhibitors of M. tuberculosis RecA intein splicing | AID 2221 | cell-free RecA intein splicing, fluorescence | inhibition, %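 (about 9 µM by stock and volumes)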 | P9WHJ3 | actives 0.75% (n = 290,000); in the data active = inhibition above about 30%; inconclusive = no clear call, values can overlap the other calls;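 note: 0% = vehicle wells and 100% = reference inhibitor control wells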
Target sequence (P9WHJ3 whole entry, looked up): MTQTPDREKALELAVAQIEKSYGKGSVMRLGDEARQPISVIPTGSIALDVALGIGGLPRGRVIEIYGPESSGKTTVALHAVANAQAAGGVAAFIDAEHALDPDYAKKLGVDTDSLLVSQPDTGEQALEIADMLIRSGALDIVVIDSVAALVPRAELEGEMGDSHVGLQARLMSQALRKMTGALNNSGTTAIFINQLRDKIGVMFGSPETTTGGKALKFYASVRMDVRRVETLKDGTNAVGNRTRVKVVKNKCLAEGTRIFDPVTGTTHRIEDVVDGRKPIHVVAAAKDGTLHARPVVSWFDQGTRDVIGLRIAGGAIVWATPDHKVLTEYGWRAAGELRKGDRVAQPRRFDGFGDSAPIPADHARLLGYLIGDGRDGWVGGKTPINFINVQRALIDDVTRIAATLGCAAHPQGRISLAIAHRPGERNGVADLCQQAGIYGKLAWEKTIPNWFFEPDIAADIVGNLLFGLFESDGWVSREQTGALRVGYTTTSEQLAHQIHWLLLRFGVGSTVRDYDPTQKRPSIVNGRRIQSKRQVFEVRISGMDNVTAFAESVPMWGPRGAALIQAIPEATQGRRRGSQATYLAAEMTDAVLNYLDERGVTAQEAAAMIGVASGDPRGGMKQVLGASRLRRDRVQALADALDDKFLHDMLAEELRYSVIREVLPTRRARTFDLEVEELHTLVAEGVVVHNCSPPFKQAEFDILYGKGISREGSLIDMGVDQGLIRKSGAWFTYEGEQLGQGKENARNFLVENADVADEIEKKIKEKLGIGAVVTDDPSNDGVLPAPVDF
Mtb betalactam = beta-lactam sensitization of Mtb H37Rv; M. tuberculosis H37Rv growth with meropenem, percent inhibition; hits of this screen are not shown here; actives 0.27% (n = 330,000); inhibition, % at 25 µM; AID 434955;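 active = about 74% or more and at least 40 points above the plate without the antibiotic, then above 30% in a dose series; inconclusive = first-round hits that could not be retested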;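 note: growth measured after seven days incubation then overnight dye step; 0% = bacteria only wells and 100% = bacteria with antibiotic; twin plates without the antibiotic show which effects depend on it; some results filed as inactive read as strong as hits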
Arbovirus inh = arbovirus infection inhibition; arbovirus infection cell-based antiviral screen; inhibition, % at 10 µM; actives 0.37% (n = 200,000); AID 1251;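 active = inhibition from about 30%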;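 note: bluetongue infection of BSR cells; cell survival read as ATP light after 72 h; 0% = infected wells without compound and 100% = uninfected wells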
Mtb H37Rv = M. tuberculosis H37Rv growth inhibitors, H37Rv strain (AID 1626). M. tuberculosis H37Rv growth inhibition; higher % means a stronger effect. inhibition, % at 10 µM, or IC50 in µM where a hit was titrated. actives 0.95% (n = 220,000);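 active = confirmed in a dose series; inconclusive = inhibition above 80% but not taken into the dose series; inactive = below 80% or under 30% at every dose of the series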;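 note: bacteria incubated seven days before Alamar blue readout; 0% = bacteria only wells and 100% = bacteria with antibiotic wells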
YopH inh = YopH (Yersinia) phosphatase inhibition | fluorescence Ex485/Em525 | inhibition, %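 (about 10 µM by stock and volumes)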 | actives 0.16% (n = 140,000) | AID 898;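 active = inhibition of 50% or more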;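 note: controls were vehicle for no effect and minimum signal wells for full effect; inactives centre near -20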
Arbovirus inh repeat = also measured in Arbovirus inh; calls as there; inhibition, %; measured here: 10K subset replicate screen; many hits read low in the repeat;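 first of two repeat runs on a subset; 0% = infected and 100% = uninfected wells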
Active calls of the source: *; ? = inconclusive; · = not tested or not shown. The list is partial; count on the stated rates, not on these rows.

SMILES | RecA intein inh | Mtb betalactam | Arbovirus inh | Mtb H37Rv | YopH inh | others
CCOc1ccc(C2CC(c3ccc(F)cc3)Nc3nc(N)nn32)cc1 (stereo not drawn) | -7.1 | 5.7 | 3.4 | 0.0% | -16.4 | Arbovirus inh repeat=2.1
CCOC(=O)C1=NOC(CN(c2ccccc2)S(=O)(=O)c2ccc(Cl)cc2)C1 (stereo not drawn) | 3.7 | 6.2 | 5.3 | · | ·
CCOC(=O)c1c(S(=O)(=O)N2CCN(Cc3ccccc3)CC2)c(C)n(C)c1C | 0.4 | -2.7 | · | · | ·
COc1nc(C)ccc1-c1noc(-c2cccnc2)n1 | 0.2 | 0.8 | · | · | ·
CC(C)CN1CCN(C(=O)CCc2nnc(Cc3c[nH]c4ccccc34)o2)[C@@H](C)C1=O | 0.8 | -8.6 | · | · | ·
CCCCCCNc1nc(-c2ccc(OC)cc2)c(CCC(=O)O)s1 | -6.5 | 41.1 | 0.3 | 6.2% | -25.6
CCn1c(=O)cc(OCC(=O)Nc2cc(C)ccn2)c2ccccc21 | · | -6.2 | -3.1 | -9.3% | 8.4
Cc1ccc2c(c1)CCCN2C(=O)C1CCCO1 (stereo not drawn) | -0.7 | 42.4 | 12.1 | -4.6% | -23.6
O=C(N/N=C/CCc1ccccc1)c1ccc(CN2c3cccc4cccc(c34)S2(=O)=O)cc1 | 4.0 | -4.2 | -14.1 | -3.5% | -36.1
CCc1c(C)[nH]c2ccc(OC)cc2c1=S | · | · | -8.0 | 0.3% | ·
Cc1ccc(CNCc2ccccc2Cl)cc1 | 4.5 | -9.8 | -2.2 | 6.9% | -12.3
COc1ccc(CNC(=O)CN2C(=O)C3C4C=CC(C4)C3C2=O)cc1 (stereo not drawn) | · | 1.5 | -5.7 | 0.1% | ·
Cc1[nH]n(-c2ccccc2)c(=O)c1S(=O)(=O)c1ccccc1 | 20.2 | ? | 2.9 | 4.9% | -41.4 | Arbovirus inh repeat=1.4
O=C(COc1ccccc1)NC1CCN(Cc2ccccc2)CC1 | 1.0 | -15.2 | 5.3 | -1.6% | -25.3
O=C(c1cc(COc2ccc(F)cc2Cl)on1)N1CCN(C2CCCCC2)C(=O)C1 | -0.9 | 4.6 | · | · | ·
COc1cccc(C2NC(CC(C)C)(C(=O)O)C3C(=O)N(Cc4ccccc4)C(=O)C23)c1O (stereo not drawn) | -3.8 | 8.7 | 3.4 | -2.1% | -23.8
CC1CCN(CCNC(=O)C2CCCN(c3ncnc4c3nc3n4CCCCC3)C2)CC1 (stereo not drawn) | -2.8 | 0.2 | · | · | ·
c1ccc2nc(OCCN3CC3)ccc2c1 | 5.7 | 8.0 | · | -6.7% | ·
O=C(C1=C[C@@H](c2ccc(Br)cc2)C[C@@H](OCCCCO)O1)N1CCOCC1 | -0.6 | -3.9 | 2.6 | -17.5% | ·
CC(CN1CCCCC1)OC(=O)c1ccccc1Cl (stereo not drawn) | -2.2 | -2.3 | 3.0 | -0.3% | 14.9
FC(F)(F)c1cccc(CNC2CCN(Cc3ccccc3)CC2)c1 | -2.7 | -0.8 | · | · | ·
Nc1nc(Cl)cc(Oc2ccc([N+](=O)[O-])cc2)n1 | -1.1 | 3.9 | · | · | ·
Cc1ccc(-c2ocnc2C(=O)Nc2nc(C)cs2)cc1 | 2.8 | 94.3 | · | · | ·
COc1ccc(C2C(C(=O)NCC3CCCO3)CCC(=O)N2c2ccc3c(c2)OCO3)cc1 (stereo not drawn) | 1.8 | 1.6 | 5.9 | -2.2% | -40.2
CCOc1ccc(Cl)cc1S(=O)(=O)N1CCC(C(=O)NCC2CCCO2)CC1 (stereo not drawn) | -0.2 | -6.9 | · | · | ·
CCN(CC(=O)NCc1ccc(Cl)cc1)C(=O)c1cc2ccccc2o1 | 0.0 | -3.6 | · | · | ·
O=C(CCNC(=O)c1ccc(Br)cc1)Nc1ccc(S(=O)(=O)Nc2ncccn2)cc1 | -2.2 | -9.1 | · | · | ·
O=C(Cn1cnc2c(nnn2Cc2ccc(F)cc2)c1=O)Nc1ccc2c(c1)OCCO2 | -2.7 | 4.2 | · | · | ·
OC(CN1CCOCC1)Cn1c2ccccc2c2ccccc21 (stereo not drawn) | -0.3 | 14.1 | · | · | ·
O=C(c1c(Cl)nc2sccn12)N1CCCc2ccccc21 | -1.1 | 4.7 | 0.5 | 4.8% | -48.9 | Arbovirus inh repeat=0.7
O=C1CCC(=O)N1c1cccc(-c2nc3ccccc3o2)c1 | -1.0 | 3.3 | 1.4 | -9.5% | -39.5 | Arbovirus inh repeat=4.8
CCS(=O)(=O)c1ccc(O)c(N2C(=O)C3C4C=CC(C4)C3C2=O)c1 (stereo not drawn) | -0.3 | -2.6 | 1.4 | -0.5% | -29.3
O=C(CC1OC(=O)c2ccccc21)Nc1cccc(S(=O)(=O)N2CCCCCC2)c1 (stereo not drawn) | 3.1 | -16.9 | · | · | ·
Cc1ccc(NC(=O)c2ccc(S(=O)(=O)NCc3cccnc3)cc2)cc1C | -0.8 | 38.4 | · | · | ·
CC1(C)Cc2cccc(OCC(=O)Nc3ccccc3F)c2O1 | 2.5 | -3.2 | · | · | ·
Cc1cccc(Nc2nc(CC(=O)O)cs2)c1 | 2.0 | -5.8 | -6.9 | 6.9% | ·
COC(=O)CSC1=C(C#N)C(=O)NC(c2ccccc2)S1 (stereo not drawn) | 1.2 | -1.6 | 2.4 | -20.0% | -27.0
O=C(NC(=S)Nc1cccc(-c2ccc(CO)o2)c1)c1cccs1 | -0.8 | 1.1 | 5.2 | 5.2% | ·
COc1cc(C2c3c([nH]c(=O)[nH]c3=O)Nc3ccc4ccccc4c32)cc(OC)c1OC (stereo not drawn) | 4.7 | 3.6 | 21.9 | -2.3% | ·
CCOC(=O)CC(NC(=O)C(Cc1ccc(N(CCCl)CCCl)cc1)NC(C)=O)C(=O)OCC (stereo not drawn) | -0.1 | -4.5 | -14.8 | 2.1% | ·
O=C(Cc1csc(NC(=O)Nc2cccc(Cl)c2)n1)NCc1cccnc1 | 3.2 | -2.2 | · | · | ·
Cc1ccc(C2=NN(C(=S)Nc3ccccc3)C(c3ccco3)C2)cc1 (stereo not drawn) | 4.3 | 6.8 | -0.4 | -1.2% | -27.3
COC(=O)c1ccc(NC(=O)c2ccc3c(c2)OCO3)cc1 | -1.2 | -1.7 | -2.7 | 3.3% | -104.2
CC(C)NC(=O)c1ccc(CN2CCc3ccccc3C2)cc1 | 0.0 | 4.7 | · | · | ·
Cc1cc(S(=O)(=O)N2CCOCC2)c(C)s1 | -0.9 | -0.9 | · | · | ·

A run of entries from the list above, for reference:
SMILES | RecA intein inh | Mtb betalactam | Arbovirus inh | Mtb H37Rv | YopH inh | others
O=C1CCC(=O)N1c1cccc(-c2nc3ccccc3o2)c1 | -1.0 | 3.3 | 1.4 | -9.5% | -39.5 | Arbovirus inh repeat=4.8
CCS(=O)(=O)c1ccc(O)c(N2C(=O)C3C4C=CC(C4)C3C2=O)c1 (stereo not drawn) | -0.3 | -2.6 | 1.4 | -0.5% | -29.3
O=C(CC1OC(=O)c2ccccc21)Nc1cccc(S(=O)(=O)N2CCCCCC2)c1 (stereo not drawn) | 3.1 | -16.9 | · | · | ·

Continued.
SMILES | RecA intein inh | Mtb betalactam | Arbovirus inh | Mtb H37Rv | YopH inh | others
CCCOP(=O)(OCCC)C(NC(=O)c1ccccc1)=C(Cl)Cl | 2.7 | 0.2 | -0.9 | -9.1% | -23.5
O=C(c1cc(COc2cccc(C(F)(F)F)c2)on1)N1CCC(Oc2cccnc2)CC1 | -10.3 | 96.1 | · | · | ·
CC(=O)c1cccc(NC(=O)NCCc2c[nH]c3ccccc23)c1 | -2.8 | -0.5 | · | 12.2% | ·
COc1cc(/C=C(\C#N)C(=O)NCC2CCCO2)ccc1OCC(=O)O (stereo not drawn) | -0.9 | -4.2 | -0.9 | 3.6% | ·
Cc1ccccc1CNS(=O)(=O)c1c(C(=O)N2CCCC2)c(C)n(C)c1C | -1.1 | -1.7 | · | · | ·
COc1ccc(C(=O)c2coc3ccc(O)c(CN4CCOCC4)c23)cc1 | 0.7 | -7.8 | 8.6 | 4.3% | -13.8 | Arbovirus inh repeat=0.2
O=C(NNC(=O)c1cc(-c2ccc(Cl)cc2)nc2ccccc12)c1csc(N2CCOCC2)n1 | 1.9 | 84.5 | · | · | ·
CC(C)Oc1ccc(/C=C(\C#N)C(=O)NC2CC2)cc1 | 4.7 | -3.8 | · | · | ·
Cc1nc([N+](=O)[O-])c(C(=O)OCc2ccccc2Br)n1C | -9.3 | 1.6 | 4.9 | 2.0% | ·
Cc1ccc(NC2CCCN(C(=O)c3ccc(C)c(N4CCNC4=O)c3)C2)cc1C (stereo not drawn) | 0.3 | -10.0 | · | · | ·
COCCN(C(=O)C(C)C)c1nnc(-c2cccc(C)c2)s1 | 2.1 | -5.2 | -2.9 | -9.4% | -47.7
Fc1ccc(NC(=S)NCc2cccnc2)cc1 | -1.6 | -4.5 | 8.3 | 7.6% | ·
Cc1ccc(-n2nc3ccc(NC(=O)c4cccc([N+](=O)[O-])c4C)cc3n2)cc1 | -1.2 | 0.1 | -0.4 | 9.4% | -21.1
CCOC(=O)CC(NC(=O)CCc1c(C)nc2nc(C)nn2c1C)c1ccc(C)cc1 (stereo not drawn) | -0.9 | -5.5 | 1.2 | -0.9% | ·
CCN(CC)c1ncccc1C(=O)NCc1cccs1 | 0.9 | -1.3 | 6.6 | -1.6% | -30.6
CCOC(=O)[C@@H]1[C@H]2COc3ccccc3[C@@H]2N2C(=O)N(c3ccc(Cl)cc3)C(=O)[C@]12C | -3.5 | -7.2 | · | · | ·
COc1ccc(CCCC(=O)Nc2cc(C)ccc2OC)cc1 | 2.8 | -0.3 | · | · | ·
O=C1NC(Cc2c[nH]c3ccccc23)C(=O)N1Cc1ccc(CN2C(=O)NC(Cc3c[nH]c4ccccc34)C2=O)cc1 (stereo not drawn) | 2.6 | 78.4 | -7.8 | 79.7% | ·
CCOC(=O)c1c(-c2ccc(C)o2)csc1NC(=O)CSc1ncn[nH]1 | 2.2 | -6.8 | 14.0 | 0.2% | 1.7
COC(=O)c1cc(NC(=O)CN2CCOCC2)cc(C(=O)OC)c1 | -0.7 | -5.7 | 3.0 | 4.1% | -3.6
COc1cccc(/C=C/c2ccc3cccc(O)c3n2)c1 | -0.3 | 100.0 | · | · | ·
COc1cccc(-c2nnc(-c3ccccc3NC(=O)c3ccc(C(C)(C)C)cc3)o2)c1 | -0.1 | 44.3 | · | 5.3% | ·
CC(=O)Nc1cccc(NC(=O)c2ccc(C)c([N+](=O)[O-])c2)c1 | 2.6 | 0.0 | -3.1 | -0.5% | ·
CCOc1ccccc1NC(=O)N1CCc2ccccc2C1 | 0.2 | 3.4 | · | · | ·
Cc1c(C(=O)/C=C/N(C)C)nnn1-c1ccc(Cl)cc1C#N | -2.2 | -1.6 | · | · | ·
C/C(=N\NC(=O)c1cc(C)[nH]n1)c1cccs1 | -0.8 | -4.8 | -1.1 | -8.1% | ·
COc1ccc(CN2CCCC(C(=O)c3cccc(C(F)(F)F)c3)C2)cc1O (stereo not drawn) | 2.2 | -1.4 | 8.8 | 1.2% | ·
O=C(O)CSc1nnc(-c2cccs2)n1-c1ccc(Cl)cc1 | 1.3 | -7.3 | 3.5 | -1.6% | -19.9
COc1cccc(C(=O)NCc2ccc3c(c2)cc(C)n3C)c1 | 2.8 | 65.1 | 6.9 | 17.0% | ·
Cc1ccccc1-c1nc(CN2CCC(C(=O)N3CCN(c4ccccn4)CC3)CC2)c(C)o1 | 3.2 | 3.2 | -1.9 | 3.3% | 7.3 | Arbovirus inh repeat=-13.1
COC(=O)c1cc(=O)n(Cc2cccs2)c(=Nc2ccccc2)s1 | 1.7 | 91.9 | · | 1.9% | ·
COc1ccccc1NC(=O)C1CC(=O)OC1c1ccccc1 (stereo not drawn) | -0.7 | -15.0 | 7.8 | 0.5% | -56.7
COc1ccc(S(=O)(=O)N2CCC(C(=O)NC3CCCCC3)CC2)cc1C | 2.4 | 1.6 | · | · | ·

Grouped by structure: those above with a nitro group on carbon.
SMILES | RecA intein inh | Mtb betalactam | Arbovirus inh | Mtb H37Rv | YopH inh | others
Nc1nc(Cl)cc(Oc2ccc([N+](=O)[O-])cc2)n1 | -1.1 | 3.9 | · | · | ·
Cc1nc([N+](=O)[O-])c(C(=O)OCc2ccccc2Br)n1C | -9.3 | 1.6 | 4.9 | 2.0% | ·
Cc1ccc(-n2nc3ccc(NC(=O)c4cccc([N+](=O)[O-])c4C)cc3n2)cc1 | -1.2 | 0.1 | -0.4 | 9.4% | -21.1
CC(=O)Nc1cccc(NC(=O)c2ccc(C)c([N+](=O)[O-])c2)c1 | 2.6 | 0.0 | -3.1 | -0.5% | ·
